Screening results from PubChem.
A1 inh: inhibitors of the anti-apoptotic protein A1, read as caspase activation. AID 2462. MEF A1-2A-BIM cells, Caspase-Glo 3/7 luminescence, 3 h; percent of clofoctol response, vehicle zero. 0.066% of 330,000 active. caspase activation, % (no concentration beside the values);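 active means over half of replicate activation scores above 10%, or exactly half above 10 with the replicate mean above 10; inconclusive means replicate mean below 10 yet half the replicates above 10; inactive means over half of replicates below 10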;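 further: wells of about 30 µL received 50 nL stock; many hits fall short of the cut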
AF4-AF9 inh: MLL-AF4/AF9 protein interaction inhibition. P42568. AlphaScreen, biotin-AF4 peptide binding to FLAG-AF9. inhibition, % at 10 µM. 0.47% of 350,000 active;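 active means every replicate reaching a set inhibition limit, whatever the replicate mean, cut at about 25% in these data; inconclusive means mean inhibition reaches that limit but some replicates miss it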;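 further: 0% = plate neutral control median and 100% = total signal loss; the record names both 10 and 1 µM as test concentration; the first replicate is given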
Target sequence (P42568 whole entry, looked up): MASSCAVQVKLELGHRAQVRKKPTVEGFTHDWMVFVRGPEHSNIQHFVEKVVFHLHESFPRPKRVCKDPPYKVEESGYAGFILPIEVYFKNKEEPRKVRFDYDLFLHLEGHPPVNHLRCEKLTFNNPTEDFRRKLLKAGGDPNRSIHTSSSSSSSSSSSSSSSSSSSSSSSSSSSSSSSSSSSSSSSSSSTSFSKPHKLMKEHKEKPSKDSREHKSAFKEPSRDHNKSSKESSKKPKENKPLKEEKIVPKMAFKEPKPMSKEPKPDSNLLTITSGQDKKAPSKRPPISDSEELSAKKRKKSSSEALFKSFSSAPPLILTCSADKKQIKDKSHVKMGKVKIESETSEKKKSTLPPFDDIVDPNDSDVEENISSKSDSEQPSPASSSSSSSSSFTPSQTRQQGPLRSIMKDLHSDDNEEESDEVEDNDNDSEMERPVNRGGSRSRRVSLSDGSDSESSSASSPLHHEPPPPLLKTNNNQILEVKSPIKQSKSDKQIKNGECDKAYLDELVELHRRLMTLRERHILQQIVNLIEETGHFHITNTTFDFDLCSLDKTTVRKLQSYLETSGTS
Vif A3G: inhibitors of Vif binding to APOBEC3G peptide, primary screen, biochemical, TR-FRET, GST-Vif 1-94, biotin-A3G peptide, dose response retest (AID 1117319); TR-FRET GST-Vif / biotin-A3G peptide binding; higher % means a stronger effect; test concentration not given here; strong numbers were not always called active; 0.57% of 260,000 active; inhibition, %; hits with a dose series show IC50 in µM;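 active means above the screen mean plus three standard deviations and confirmed in dose response; inconclusive means results disagree or hit not tested in dose response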;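 further: Vif residues 1-94 fused to GST binding biotinylated APOBEC3G peptide 110-148; 0% = full assay without inhibitor and 100% = GST in place of GST-Vif; retest series ran down from 100 µM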
Beta cell apopt: beta cell apoptosis inhibition | protection from apoptosis, % (test concentration not listed) | 0.8% of 300,000 active | INS-1E cytokine-induced death, ATP luminescence, 48 h; percent of positive-control rescue, neutral wells zero | AID 435005;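 active means all replicates at 75% or more, or half of them and the mean; inconclusive means half reach 75% but not the mean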;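 further: 0% = cytokine-treated negative control wells and 100% = positive control rescue; higher means more ATP so stronger rescue from cytokine killing; wells of about 40 µL received 100 nL stock; the first replicate is given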
T cruzi repl: T. cruzi replication inhibition; T. cruzi beta-gal in NIH3T3, luminescence, 90 h; inhibition, % (test concentration not listed); 1.4% of 300,000 active; AID 1885;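 active means mean inhibition across valid replicates above about 55%, limit read from the data; inconclusive means mean below that limit but half or more replicates reach it; inactive means mean below it, under half of replicates reach it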;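 further: signal also drops with host cell toxicity which is not excluded here; 0% = plate median of DMSO wells and 100% = zero luminescence signal; higher percent means less beta-gal luminescence so fewer parasites; stock transfer was 50 nL into about 50 µL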
Calb FLC: C. albicans growth modulation with fluconazole. C. albicans CaCi-2 (fluconazole-resistant clinical isolate) + fluconazole, Alamar Blue growth, 48 h. 0.57% of 300,000 active. growth inhibition, % (no concentration beside the values). AID 1979;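 active means most replicates above 75%; inconclusive means exactly half above 75%; inactive means most below 75%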;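 further: all wells also contain fluconazole at 8 µg/ml as a sub-toxic cotreatment; 0% = median of DMSO wells and 100% = median of geldanamycin control wells; wells of about 8 µL received 7.5 nL stock; the first replicate is given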
rRNA inh HTS: selective bacterial rRNA inhibition in E. coli. GFP signal change (wild-type ribosome), % (test concentration not listed). 1.6% of 350,000 active. E. coli WT GFP vs humanized-ribosome RFP mutants, fluorescence, 24 h; hits give low values; DMSO median 0, no signal -100;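 active means significant combined selectivity score with lowered wild-type GFP, culture density cut under 30%, mutant RFP and density less affected; inactive means any of these conditions unmet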; further: one replicate is shown; some compounds called inactive have numbers as strong as hits
RanGTP-Imp inh: disruptors of Ran-importin-beta complex formation – biochemical, FRET, CFP-Ran, YFP-importin-beta, homogeneous, primary screen. cell-free CFP-Ran/YFP-importin-beta FRET ratio. inhibition, % (concentration not given with the values). 1.1% of 300,000 active. AID 2216;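 active means most replicates above 15%; inconclusive means exactly half above 15%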;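 further: 0% = DMSO wells and 100% = Ran loaded with GDP instead of GTP; wells of about 40 µL received 100 nL stock; the first replicate is given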
rRNA inh HTS OD600: recorded beside rRNA inh HTS, whose call it bears; OD600 change, %; measured here: OD600 growth;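 optical density of the mix in the first replicate; 0 = DMSO median and -100 = no signal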
rRNA inh HTS RFP: also measured in rRNA inh HTS; calls as there; RFP signal change, %; measured here: RFP humanized mutant strains;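 first replicate; 0 = DMSO median and -100 = no signal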
* marks the source's active call; other numbers are inactive results; ? = inconclusive; . = not tested or not shown; & = joins results of further samples.

SMILES | A1 inh | AF4-AF9 inh | Vif A3G | Beta cell apopt | T cruzi repl | Calb FLC | rRNA inh HTS | rRNA inh HTS OD600 | rRNA inh HTS RFP | RanGTP-Imp inh
CN(CC(=O)OCC(=O)NC1CCCC1)S(=O)(=O)c1ccc(Cl)cc1 | 1.2 | 0.6 | . | -4 | . | . | -1 | 0 | 0.0 | .
O=C(NCCCN1CCOCC1)c1cn(-c2ccccc2)nc1-c1ccc(Br)cc1 | 0.2 | 4.5 | . | 1 | . | . | -7 | -35 | -0.2 | .
CN1CCN(c2nc(-c3ccccc3Cl)nc3ccccc23)CC1 | 0.0 | 1.9 | -9% | -21 | 10 | -7 | -3 | -20 | 2.0 | 1.0
O=C(NNc1c2ccccc2nc2ccccc12)c1ccc(Cl)cc1 | 0.2 | -1.5 | -2% | 34 | -2 | 35 | 14 | 10 | 0.1 | 20*
CCSc1nnc(NC(=O)CSc2nnc(Cc3cccn3C)n2-c2ccc(C)cc2)s1 | -0.7 | 2.3 | 4% | . | 17 | -2 | -3 | -3 | 36 | -1.4
CCOC(=O)C1CCCN(Cc2ccc3c(c2)OCO3)C1 (stereo unspecified) | 0.0 | . | -1% | 4 | 47 | -22 | . | . | . | ?
C=CCn1c(O)c(C(CC)=NCCN2CCOCC2)c(=O)[nH]c1=O | 0.3 | . | 65% | -6 | -18 | 3 | . | . | . | 7.5
O=C(NCc1ccco1)c1ccc(Cn2c(=O)c3ccccc3n(Cc3cccc(F)c3)c2=O)cc1 | -0.2 | . | ? | . | 13 | 25 | . | . | . | 5.8
Cc1cccc2cc(CN(Cc3ccc(F)cc3)C(=O)N3CCOCC3)c3nnnn3c12 | -0.1 | . | -8% | -1 | 3 | 4 | . | . | . | 5.1
Cn1nc(C(F)(F)F)cc1C(=O)Nc1ccc(Cl)cc1 | -0.8 | -3.4 | . | 3 | 7 | -4 | 0 | 0 | 0.7 | 10
Cc1ccc(NC(=O)C2(S(=O)(=O)c3ccc(Cl)cc3)CC2)c(Br)c1 | -1.0 | -4.1 | . | -3 | 7 | -6 | 0 | -17 | -2.4 | -3.1
CCN(CC)S(=O)(=O)c1ccc(-n2c(=O)c(C(C)C)c(C)n2C)cc1 | 0.3 | -2.9 | 15% | . | 9 | 1 | 7 | 2 | 0.3 | 1.2
C=CCn1c(C)cc(C(=O)CN2C(=O)NC3(CCCc4ccccc43)C2=O)c1C (stereo unspecified) | -0.1 | . | 2% | -3 | 1 | 3 | . | . | . | -1.5
Cc1ccc(C(=O)c2c3ccccc3[n+]([O-])n2CCC(=O)O)cc1 | 0.7 | -12 | . | -4 | . | . | -2 | -2 | -0.5 | .
Cc1ccccc1NC(=O)Cc1nc(COC(=O)c2ccc(O)cc2O)cs1 | -0.5 | -1.7 | . | 5 | 0 | -7 | -20 | -28 | -0.5 | ?
O=C(NNc1nc2ccccc2s1)Nc1ccccc1 | -2.0 | -2.4 | -8% | -3 | -1 | -10 | . | . | . | 0.2
O=c1nc(C(F)(F)F)nc2ccccn12 | 2.9 | . | 1% | -12 | -22 | 1 | . | . | . | -1.7
CCOC(=O)Cc1ncccc1C(=O)Nc1ccc(OC)cc1 | 0.1 | -0.1 | -7% | 2 | 11 | 1 | 9 | 22 | 1.3 | 6.7
Cc1ccc(C(=O)N2N=C(c3ccccc3O)CC2c2ccccc2)cc1 (stereo unspecified) | 0.6 | -0.2 | -4% | 7 | 19 | -7 | 6 | 7 | -1.7 | -0.4
COc1cccc(CNC(=O)c2ccccc2NC(=O)C2=C(C)OCCS2)c1OC | 0.0 | 9.7 | -3% | -2 | 8 | -41 | -2 | -4 | 0.6 | -1.0
COc1cc(NC(=O)c2cccc(C)c2)c(OC)cc1NC(=O)CN1CCCCC1 | -0.1 | 17 | 1% | 3 | 26 | 9 | -3 | -13 | -2.2 | -0.3
COc1ccc(C2=NOC3(CC(=O)N(c4ccc(F)cc4)C3=O)C2)c(OC)c1 (stereo unspecified) | -1.2 | . | 9% | -6 | 13 | -5 | . | . | . | -1.2
CC(=O)Nc1sc2c(c1CN1CCN(c3ccccn3)CC1)CCCC2 | 0.3 | 8.6 | -2%&5% | 2 | 9 | 7 | -25 | -37 | -12 | -0.7
CC(C)=NNc1cc([N+](=O)[O-])cc2c1C(=O)N(C)S2=O (stereo unspecified) | 0.1 | -10 | . | -5 | -2 | -3 | 13 | 16 | -3.1 | 5.9
Cc1nn(Cc2ccc(C(=O)NC3CCCCC3)o2)c(C)c1Br | -0.1 | -15 | 1% | 0 | 14 | 8 | -13 | -8 | 7.2 | -3.7
CN(c1ccccc1)S(=O)(=O)c1cc(C(=O)N2CCN(c3ccccn3)CC2)ccc1Cl | -1.5 | . | 7%&7% | 8 | 8 | -13 | . | . | . | 2.8
CCN(C(=O)COC(=O)c1cccc(-n2cnnn2)c1)C1CCCCC1 | 0.4 | -5.5 | 23% | -3 | -9 | -15 | 5 | 9 | -2.4 | 3.0
Cc1cccc(N2CCN(C(=O)c3cccs3)CC2)c1C | 1.6 | -15 | -1% | 3 | -15 | 3 | -33 | -47 | -3.3 | 1.3
COc1ccc(NC(=O)Cn2nnc(-c3ccccc3F)n2)cc1 | 1.0 | . | 2% | -5 | . | -4 | . | . | . | .
COC(=O)C1=C(C(=O)c2ccc(C)cc2)C(c2ccc(O)c(OC)c2)n2nnnc2N1 (stereo unspecified) | 0.0 | . | 3% | 0 | 17 | 7 | . | . | . | 2.3
O=C(COc1ncnc2cc([N+](=O)[O-])ccc12)NCc1ccc2c(c1)OCO2 | 0.6 | . | 23% | 4 | 32 | -9 | . | . | . | 1.4
CCOC(=O)C1=C(CP(=O)(c2ccccc2)c2ccccc2)NC(=O)NC1c1ccc(Cl)cc1 (stereo unspecified) | 0.5 | . | . | -1 | 15 | 6 | . | . | . | ?
C/C(=N\NC(=O)c1cc(-c2ccc(C)s2)[nH]n1)c1ccncc1 | -0.5 | 0.5 | . | 2 | 26 | -5 | -15* | 10* | 0.1* | 2.6
CC(C)C1Oc2ccccc2N(CC(=O)N2CCOCC2)C1=O (stereo unspecified) | -0.3 | -4.4 | . | 0 | 5 | -10 | 5 | 6 | -3.0 | -0.1
O=C(c1ccccn1)N1N=C2/C(=C/c3ccc(F)cc3)CCCC2C1c1ccc(F)cc1 (stereo unspecified) | -0.1 | . | . | 22 | 0 | -1 | . | . | . | 3.5
CC(=O)c1ccc(NC(=O)CN(c2c(C)cccc2C)S(C)(=O)=O)cc1 | -0.8 | 1.0 | . | -6 | -5 | 4 | -3 | -10 | -0.4 | -1.5
CCN(C(=O)Cn1c([N+](=O)[O-])cnc1C)c1ccccc1 | 0.3 | -1.8 | 4% | 1 | -7 | -2 | 7 | -2 | -1.3 | 0.3
CCOCCOc1cccc(C(=O)NC(c2ccccc2)C(C)C)c1 (stereo unspecified) | 0.4 | 5.2 | 2% | -3 | -7 | 0 | 11 | 5 | -3.5 | -2.0
CC1CCN(C2=NC(=O)/C(=C/c3cn[nH]c3-c3ccccc3)S2)CC1 | ? | . | -3% | -1 | 16 | -5 | . | . | . | 6.0
Cc1cccc(C)c1N1C(=O)c2ccccc2C1=O | 0.2 | -35 | 16% | -2 | -12 | -5 | -5 | -5 | 2.7 | 2.4

Reprinted from the part before: two entries; new compounds follow.
SMILES | A1 inh | AF4-AF9 inh | Vif A3G | Beta cell apopt | T cruzi repl | Calb FLC | rRNA inh HTS | rRNA inh HTS OD600 | rRNA inh HTS RFP | RanGTP-Imp inh
CC1CCN(C2=NC(=O)/C(=C/c3cn[nH]c3-c3ccccc3)S2)CC1 | ? | . | -3% | -1 | 16 | -5 | . | . | . | 6.0
Cc1cccc(C)c1N1C(=O)c2ccccc2C1=O | 0.2 | -35 | 16% | -2 | -12 | -5 | -5 | -5 | 2.7 | 2.4
O=C(COC(=O)c1ccccc1Br)NCC1CCCO1 (stereo unspecified) | -0.6 | -11 | . | -4 | . | . | 4 | 6 | -2.3 | .
COc1ccc(-n2ccc3ccccc32)cc1 | 0.3 | -1.7 | . | . | -2 | -4 | 9 | 6 | -1.1 | 0.5
CC1CCCC(CC(=O)O)(CC(=O)O)C1 (stereo unspecified) | 0.3 | 2.1 | 29% | 1 | -4 | 3 | 4 | 10 | -0.2 | -0.5
CCCCNC(=O)c1c[nH]c2ccc(S(=O)(=O)N3CCOCC3)cc2c1=O | 1.8 | -0.7 | -2% | 1 | 4 | -27 | -8 | -8 | -1.3 | ?
O=C(NCC1CCCO1)c1ccc(NC(=O)c2cc(F)c(F)cc2Cl)cc1 (stereo unspecified) | -0.8 | -1.3 | . | -4 | -10 | -6 | 9 | 5 | 9.2 | ?
O=C(Nc1nc2c(Cl)ccc(Cl)c2s1)c1ccco1 | -0.9 | 2.0 | 0% | 32 | -14 | ? | 11 | -4 | 9.6 | -1.6
O=C(O)c1ccc(N=Nc2c(O)[nH]c3ccc(Br)cc23)cc1 | -3.7 | 2.5 | 8% | 6 | -8 | 37 | 22 | 17 | 2.5 | -5.9
Cc1ccc(S(=O)(=O)N(CC(=O)N2CCC(C)CC2)c2ccccc2)cc1 | 0.3 | -2.5 | -6% | 0 | -3 | -1 | -9 | -8 | 2.1 | -3.4
Nc1nc(NCc2ccco2)nc(N2CCN(Cc3ccccc3)CC2)c1[N+](=O)[O-] | -0.2 | 6.4 | -4% | 2 | 0 | 11 | -24* | -11* | 4.8* | -0.9
CCOC(=O)c1sc(N2C(=O)C(O)=C(C(=O)c3ccco3)C2c2ccc(C)o2)nc1C (stereo unspecified) | 0.3 | 0.0 | . | -2 | -45 | 1 | -18 | -14 | 8.0 | 6.5
CCn1c(SCC(=O)Nc2cccc(NC(=O)c3cccs3)c2)nnc1-c1ccncc1 | -2.4 | . | 13% | 10 | . | 2 | . | . | . | -2.0
COC(=O)[C@]1(Cc2ccccc2)N[C@H](c2ccc(-c3ccccc3)cc2)[C@@H]2C(=O)N(C)C(=O)[C@@H]21 | 1.5 | 0.0 | . | -1 | 7 | -14 | 4 | 0 | 5.0 | -1.5
CSCCOC(=O)C1=C(C)NC(=O)NC1c1ccc2c(c1)OCO2 (stereo unspecified) | 1.2 | -3.6 | . | -3 | -14 | 5 | -2 | -4 | 0.2 | -0.1
O=C(CSc1nc2cc(Cl)ccc2s1)NC(=O)NCc1ccco1 | -0.1 | . | 11% | -7 | 11 | ? | . | . | . | 0.5
COc1ccc(S(=O)(=O)N2CCCCC2)cc1NC(=O)CNc1ccccc1C(C)=O | -0.2 | 1.6 | -8% | 0 | . | . | . | . | . | .
CN(C)c1ccc(/C=N/NC(=O)C2CC2c2ccccc2)cc1 (stereo unspecified) | 2.6 | 19 | 13% | -7 | -4 | -51 | -9 | -4 | -2.5 | .

The list is partial; rates above refer to the full screens.
